Screening data from PubChem BioAssay.
RanGTP-Impb inh – inhibitors of RanGTP-importin-beta interaction, primary screen, biochemical, FRET, CFP-Ran, YFP-importin-beta, homogeneous. 1.1% of 300,000 active. cell-free CFP-Ran/YFP-importin-beta FRET ratio. inhibition, % (no concentration beside the values);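 active = most replicates above 15%; inconclusive = exactly half above 15%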;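 note: 0% = DMSO wells and 100% = Ran loaded with GDP instead of GTP; wells of about 40 µL received 100 nL stock; the first replicate is given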
HNF4A DNA FP – change in binding of human HNF4 alpha to DNA | P41235 | HNF4a-FITC DNA binding, fluorescence polarization, 1 h | activity change, % at 10 µM | 0.3% of 360,000 active | AID 1224865; in the data active = activity change above about 30%, passing the limit was not always enough;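 note: controls were the assay level and a saturating level of protein; the project sought stronger binding though the title names inhibitors; some compounds called inactive have numbers as strong as hits; positive values seem to mean higher polarization but the record does not say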
E coli growth – blocks Escherichia coli growth; OD600, 23 h; hits give low values; OD600 absorbance (concentration not given with the values); 0.21% of 330,000 active; AID 1053175;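 active = OD600 absorbance below the run mean of sample wells minus 3.6 SD, in any replicate, cut at about 0.56 in these data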;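 note: stock transfer was 300 nL into about 60 µL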
Vif A3G – HIV-1 Vif–A3G interaction blockers – biochemical, TR-FRET, GST-Vif 1-94, biotin-A3G peptide, dose response retest, primary screen (AID 1117319). TR-FRET GST-Vif / biotin-A3G peptide binding; higher % means a stronger effect; test concentration not given here; strong numbers were not always called active. 0.57% of 260,000 active. inhibition, %; hits with a dose series show IC50 in µM;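 active = above the screen mean plus three standard deviations and confirmed in dose response; inconclusive = results disagree or hit not tested in dose response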;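 note: Vif residues 1-94 fused to GST binding biotinylated APOBEC3G peptide 110-148; 0% = full assay without inhibitor and 100% = GST in place of GST-Vif; retest series ran down from 100 µM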
UCH37 inh – inhibitors of human deubiquitinating enzyme UCH37; AID 588478; inhibition, % (no concentration beside the values); purified proteasome/UCH37, Ub-AMC cleavage fluorescence; Q9Y5K5; 0.33% of 330,000 active;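 active = mean of two replicates above 20%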;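 note: 0% = compound-free wells with enzyme and 100% = wells lacking proteasome; stock transfer was 100 nL into about 20 µL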
Target sequence (Q9Y5K5 whole entry, looked up): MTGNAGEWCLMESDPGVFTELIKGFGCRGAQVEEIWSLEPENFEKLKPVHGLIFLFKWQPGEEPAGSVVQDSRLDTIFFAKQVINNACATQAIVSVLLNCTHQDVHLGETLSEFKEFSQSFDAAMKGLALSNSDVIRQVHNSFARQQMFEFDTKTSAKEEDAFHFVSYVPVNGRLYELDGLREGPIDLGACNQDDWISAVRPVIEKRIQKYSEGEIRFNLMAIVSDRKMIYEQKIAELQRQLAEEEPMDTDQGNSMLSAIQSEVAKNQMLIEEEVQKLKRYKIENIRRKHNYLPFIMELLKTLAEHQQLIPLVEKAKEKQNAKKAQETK
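System: Proteasome-associated human UCH37 deubiquitinase; Input: 0.15 nM proteasome in added enzyme buffer; Also added: Ub-AMC substrate from 1 µM stock; Incubation: 30 min compound-proteasome preincubation then 25 min substrate reaction, room temperature; Detection: fluorescence, ex 355 nm, em 460 nm; Read-out: % inhibition of Ub-AMC cleavage fluorescence; Benchmarks: no-proteasome and no-compound wells.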
AF4-AF9 inh – blocks AF4 peptide binding to human AF9 | P42568 | AlphaScreen, biotin-AF4 peptide binding to FLAG-AF9 | inhibition, % at 10 µM | 0.47% of 350,000 active | AID 651704;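 active = every replicate reaching a set inhibition limit, whatever the replicate mean, cut at about 25% in these data; inconclusive = mean inhibition reaches that limit but some replicates miss it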;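 note: 0% = plate neutral control median and 100% = total signal loss; the record names both 10 and 1 µM as test concentration; the first replicate is given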
Target sequence (P42568 whole entry, looked up): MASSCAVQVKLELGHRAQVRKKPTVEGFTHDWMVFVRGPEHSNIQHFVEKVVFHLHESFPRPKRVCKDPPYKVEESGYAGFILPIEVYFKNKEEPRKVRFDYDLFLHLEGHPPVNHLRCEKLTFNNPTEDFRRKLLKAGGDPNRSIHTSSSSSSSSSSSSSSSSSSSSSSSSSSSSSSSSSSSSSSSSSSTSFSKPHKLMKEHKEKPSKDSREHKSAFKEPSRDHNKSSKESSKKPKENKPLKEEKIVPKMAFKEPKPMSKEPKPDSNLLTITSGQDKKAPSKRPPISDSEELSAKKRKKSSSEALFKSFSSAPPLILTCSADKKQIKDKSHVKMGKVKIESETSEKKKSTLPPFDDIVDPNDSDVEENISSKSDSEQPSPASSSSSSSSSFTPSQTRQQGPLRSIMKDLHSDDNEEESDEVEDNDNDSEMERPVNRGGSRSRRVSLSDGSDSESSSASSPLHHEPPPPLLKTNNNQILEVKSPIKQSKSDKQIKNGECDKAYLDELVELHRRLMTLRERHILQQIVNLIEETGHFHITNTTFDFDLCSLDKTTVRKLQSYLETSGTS
FGF22 binding – binders of recombinant human FGF22 by thermal shift. Q9HCT0. SYPRO orange fluorescence; percent of sucrose octasulfate shift, DMSO zero. calls only at 9.99 µM. 1.5% of 340,000 active. AID 651658;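 active = melting point raised past a set limit in the mean and every replicate; inconclusive = no clear call; three in four hits are not shown here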
Target sequence (Q9HCT0 whole entry, looked up): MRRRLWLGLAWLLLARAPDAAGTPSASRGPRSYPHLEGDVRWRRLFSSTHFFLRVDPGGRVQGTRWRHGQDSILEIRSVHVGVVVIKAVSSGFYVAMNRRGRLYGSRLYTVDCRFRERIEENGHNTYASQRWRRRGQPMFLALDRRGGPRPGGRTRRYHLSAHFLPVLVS
Active calls of the source: *; i = inactive; ? = inconclusive; / = no result given; & = joins results of further samples. The list is partial; the hit share may differ from the screen's.

Each structure is followed by: E coli growth, RanGTP-Impb inh, HNF4A DNA FP, FGF22 binding, Vif A3G, UCH37 inh, AF4-AF9 inh
Cc1cccc(OCc2n[nH]c(=S)n2Cc2ccccc2)c1
  0.67, 0.1, -2.9, i, 9%, 0.2, -7.4
CCOC(=O)c1c(C)[nH]c(C(=O)Cn2nnc(-c3ccccc3Cl)n2)c1C
  0.71, 3.5, -2.0, /, -13%, -1.1, /
NC(=O)C(=O)NN=C1C2CC3CC(C2)CC1C3
  0.64, -1.9, 1.8, /, -8%, -0.6, -0.4
CC1=NOC2(C1)/C(=N/O)CCC/C2=N\O (centres undefined)
  /, 2.1, -1.9, /, 6%, /, /
CC1(C(=O)NS(=O)(=O)c2ccc(C#N)cc2)CCN1C(=O)C1(c2ccc(Cl)cc2)CCC1 (centres undefined)
  /, /, -4.3, i, /, /, -2.0
CC(C)(Oc1ccc(Br)cc1)C(=O)N1CCc2ccccc21
  0.72, 1.8, 1.4, /, 5%, 2.1, /
O=C(NCCCN1CCN(CCCNC(=O)c2cc([N+](=O)[O-])ccc2Cl)CC1)c1cc([N+](=O)[O-])ccc1Cl
  0.72, 1.4, 5.7, /, /, 8.1, /
COc1ccc(NC(C)=O)cc1S(=O)(=O)Nc1cccc(S(=O)(=O)NC2=NCCC2)c1
  0.68, /, -0.2, i, -6%, 1.5, -3.6
CCCCN1CC(N(C)CCN(C)C)CS1(=O)=O (centres undefined)
  /, /, 3.9, i, /, /, 2.5
Cc1ccccc1NC(=O)N1C2CCCC1CC(NC(=O)C(C)(C)C)C2 (centres undefined)
  0.7, -4.7, 1.4, /, -1%, 1.5, /
Cc1ccc2nc(N(CCCN(C)C)C(=O)c3ccc(Br)s3)sc2c1
  0.67, 5.0, 2.7, i, ?, 3.1, 4.0
Cc1[nH]c2ccccc2c1/C=N/NC(=O)CCC(=O)Nc1ccccc1
  /, -5.0, 7.9, i, 13%, /, 0.8
CC(C)(CNC(=O)c1cccc(S(=O)(=O)Nc2ccc(Br)cc2)c1)N1CCOCC1
  0.64, 1.5, -0.8, i, -1%, 3.8, -12
Cc1cccc(C(=O)Nc2cc(NC(=O)c3cccs3)ccc2C)c1
  0.67, 3.7, 3.3, i, /, 1.7, -16
COc1cc(-c2cc[n+](C)cc2)ccc1O
  0.7, 2.5, -3.3, i, /, 6.1, -6.5
CN(C(=O)c1ccc(F)c(S(=O)(=O)N2CCOCC2)c1)C1CCCCC1
  0.67, /, 3.2, i, -7%, -0.7, -1.6
O=C(Nc1ccc(Br)cc1)c1ccccc1Br
  0.67, -5.6, -2.7, i, /, 1.5, -1.6
COc1ccc(OCc2cc(C(=O)N(C)C(C)c3ccon3)no2)c(Cl)c1 (centres undefined)
  0.73, -0.8, 4.8, i, /, 5.8, -2.0
CCOC(=O)NC(=O)/C(C#N)=N\Nc1cccc(OC)c1
  /, -3.5, 0.7, /, 10%, /, -2.1
COc1ccc(-c2cccc(C(=O)N3CCOCC3)c2)cc1
  0.69, 4.7, -1.9, i, /, 3.9, -1.5
Cc1ccccc1C1CC(c2ccc(F)cc2)Nc2nc(N)nn21 (centres undefined)
  0.72, -2.7, 1.2, i, 6%, 0.2, -2.7
O=C(CCCN1C(=O)/C(=C/c2ccc(F)cc2)SC1=S)NC1CCS(=O)(=O)C1 (centres undefined)
  0.69, -4.2, 5.1, i, -1%, 6.9, 1.9
COc1ccc(C(=O)OCC(=O)Nc2ccc(OC(F)F)cc2)c(OC)c1
  0.67, 1.7, 1.7, /, -3%, 3.3, /
CN(c1ncnc(N)c1[N+](=O)[O-])C1CCS(=O)(=O)C1 (centres undefined)
  0.7, 2.9, 1.3, i, 1%, 7.8, -4.6
COc1cc(NC(=O)c2ccc(C(C)(C)C)cc2)c(OC)cc1NC(=O)CN1CCCCC1
  0.69, -2.5, 4.5, i, 7%, -5.2, 11
CN(C)c1ccc(/C=[N+](\[O-])C2SC(=S)N(C)C2(C)C)cc1 (centres undefined)
  0.67, 0.7, -1.9, /, 20%, 14, /
O=C(CCN1C(=O)c2ccccc2C1=O)N1CCOCC1
  0.69, -1.4, -0.5, /, 0%, -0.2, /
COc1ccc(C)cc1NC(=O)C1CCN(S(=O)(=O)c2cccc3nonc23)CC1
  0.71, 1.8, 1.9, i, /, 2.4, 1.8
CCCOc1cccc(C(=O)Nc2cc(NC(=O)c3ccco3)ccc2OC)c1
  0.7, -1.5, -1.4, /, -1%, 3.1, /
O=C(Nc1ccccc1)C1=C[C@@H](C2CC2)C[C@@H](OCc2ccc(CO)cc2)O1
  /, 0.3, -2.2, i, /, 5.8, -0.9
Brc1c(-c2ccccc2)nc2n1Cc1ccccc1-2
  0.67, 1.3, 0.8, i, -6%, 2.7, 5.1
CC(=O)NC1=NC(=O)/C(=C/c2cc(C)n(-c3ccc(NC(C)=O)cc3)c2C)S1
  0.7, -0.9, 82*, i, ?, 3.9, 1.7
Cc1c(NC(=S)N/C(=N/S(=O)(=O)c2ccccc2)c2ccccc2)c(=O)n(-c2ccccc2)n1C
  0.69, 6.8, -4.4, i, 1%, 4.6, -2.0
COc1cccc(/C=C/C(=O)NNC(=O)c2cc(C)oc2C)c1
  0.61, -0.2, 2.5, i, 1%, -6.6, 3.3
COc1ccc(N(Cc2ccccc2)S(=O)(=O)c2cccc(C(=O)NCC3CCCO3)c2)cc1 (centres undefined)
  0.62, /, 1.0, i, 2%, 0.5, ?
Cc1ccc(S(=O)(=O)NC23CC4CC(CC(C4)C2)C3)cc1
  /, /, 1.7, i, /, /, -1.8
O=C(Nc1ccc(F)cc1)Nc1ccccc1N1CCCCC1
  0.72, 4.4, -3.3, i, -14%, 1.8, 1.0
CNC(=S)Nc1cccc([N+](=O)[O-])c1
  0.67, -2.7, 0.7, i, 19%, 2.4, -3.0
O=C(CC(c1ccccc1)c1ccco1)N1CCCCC1 (centres undefined)
  0.68, 1.2, 0.7, /, -7%, 0.8, /
COc1ccc(C(=O)NCCCNC(=O)c2ccccn2)cc1
  0.72, -1.5, 2.3, i, 3%, 1.8, 0.5
COC(=O)C(CC(=O)c1ccc(Cl)cc1)c1ccc(C(C)C)cc1 (centres undefined)
  0.72, 7.5, -5.7, /, 11%, 5.3, /
COc1ccc(Cl)cc1N1C(=NC(=O)C2CCCCC2)SC2CS(=O)(=O)CC21 (centres undefined)
  0.66, 4.9, 0.4, i, /, 2.8, -2.6
CCc1ccc(CCC(=O)Nc2ccccc2C(=O)O)o1
  0.72, 3.7, -0.4, /, 32%, 0.3, /
COc1ccccc1C1CC(=O)Oc2c(C(C)C)ccc(C)c21 (centres undefined)
  0.69, /, -4.5, i, -1%, 2.3, 0.5
CC1Cc2cccc3ccc(=O)n(c23)C1 (centres undefined)
  /, /, -0.1, i, -3%, /, -2.0

Record cards (already shown). Values in the order: E coli growth	RanGTP-Impb inh	HNF4A DNA FP	FGF22 binding	Vif A3G	UCH37 inh	AF4-AF9 inh
COc1ccc(Cl)cc1N1C(=NC(=O)C2CCCCC2)SC2CS(=O)(=O)CC21 (centres undefined) is entered as 0.66	4.9	0.4	i	/	2.8	-2.6
CCc1ccc(CCC(=O)Nc2ccccc2C(=O)O)o1 is entered as 0.72	3.7	-0.4	/	32%	0.3	/

Later entries.
Each structure is followed by: E coli growth, RanGTP-Impb inh, HNF4A DNA FP, FGF22 binding, Vif A3G, UCH37 inh, AF4-AF9 inh
Oc1ccc2ccccc2c1CN1CCOCC1
  0.66, 4.3, 2.5, /, 11%, -14, -7.0
O=C1C2C3C=CC(C3)C2C(=O)N1c1ccccc1OS(=O)(=O)c1ccccc1 (centres undefined)
  0.68, -1.5, -4.1, /, /, 0.5, /
CC(C)c1cc(-c2n[nH]c(=S)n2Cc2ccccc2)cs1
  0.66, -3.2, 2.0, /, 16%, 1.9, /
CN(CC(=O)N1CCOCC1)C(=O)CSc1nc2ccccc2s1
  0.71, 5.7, -1.7, i, -4%, 4.4, -5.1
O=C(C1CCN(S(=O)(=O)N2CCC3(CC2)OCCO3)CC1)N1CCOCC1
  0.66, 0.7, 3.9, /, 63%, -1.4, /
Cc1cnc2nc(-c3ccccc3)ccc2c1
  /, /, 4.1, i, /, /, 1.2
CN(C)CC[C@@H](c1ccc(Br)cc1)c1ccccn1
  /, 0.6, -0.8, i, /, 3.1, -12
O=C(NC1CCCCCC1)c1ccc(N2CCCC2=O)cc1
  0.71, -0.8, -2.1, /, -2%, 6.2, /
O=C(O)c1cc(-c2ccc(Cl)cc2)n(-c2cccc(Cl)c2)n1
  0.7, 3.7, -2.0, i, 26%, 1.0, -4.9
C[C@H](CO)N1C[C@H](C)[C@@H](CN(C)C(=O)Nc2ccc3c(c2)OCO3)Oc2c(NC(=O)Cc3ccccc3)cccc2C1=O
  0.69, /, -0.2, i, -4%, 13, -1.3
CCOC(=O)CSc1nnc(-c2c[nH]c3ccccc23)o1
  0.63, -1.4, 1.0, i, /, 0.5, 0.5
COc1ccc(CCn2c(C(C)C)nc3oc4ccccc4c(=O)c3c2=O)cc1
  0.67, 3.6, -0.7, i, -14%, 2.3, 0.8
CCOc1ccc2[nH]c(=O)c(CN(Cc3cccnc3)C(=O)Nc3ccccc3OC)cc2c1
  0.71, 4.3, -1.4, /, -7%&0%, -8.3, /
Cc1cccc(CCNC(=O)CC2C(=O)NCCN2Cc2ccccc2C)n1 (centres undefined)
  0.71, -0.9, 0.2, i, -3%, -1.9, 3.1
Cc1ccc(C)c(S(=O)(=O)NCc2ccc(C(=O)N3CCCCCC3)cc2)c1
  0.65, -1.7, 1.6, /, /, 2.8, /
O=C1CC(Sc2ncccn2)C(=O)N1c1ccccc1 (centres undefined)
  0.74, -4.4, -0.4, /, 29%, 0.4, /
O=C(Nc1cccc(-c2nnco2)c1)c1cccs1
  0.66, 4.5, 2.4, i, /, 2.6, 1.2
Cc1nc2ccccc2c(=O)n1/N=C/c1ccccn1
  /, -2.1, -4.9, /, 5%, /, /
CCCCCc1nnc(NC(=O)OCCC)s1
  0.63, 3.0, 1.4, /, 5%, 0.7, /
CCC(CO)Oc1cc(NC(=O)c2cccc(C)c2)c2ncn(C(C)C)c2c1 (centres undefined)
  0.64, /, 2.1, i, /, 1.2, 3.2
CCOc1ccc(N2C(=O)CCC2=O)cc1
  0.67, -0.3, 3.4, /, 1%, 3.0, /
CCc1nc2cc([N+](=O)[O-])c([N+](=O)[O-])cc2[nH]1
  0.67, 3.4, -0.8, i, 13%, 3.0, -1.1
N#C/C(=C\c1ccc(-c2ccc(F)cc2)o1)C(=O)Nc1nc(-c2cccs2)cs1
  0.71, 19*, -5.2, i, /, 10, 2.6
CCCC1(C(=O)OCC)NC(c2ccc(O)cc2)C2C(=O)N(c3ccc4c(c3)OCCO4)C(=O)C21 (centres undefined)
  0.71, -1.3, 3.4, i, 1%, -2.2, 2.6
O=C(CNC(=O)c1cccc(F)c1)N/N=C/c1ccc([N+](=O)[O-])s1
  /, -2.9, -5.1, /, 2%, /, /
CC12CCC(=O)N1C(C(=O)OCC(=O)Nc1ccc(Cl)c(Cl)c1)CS2 (centres undefined)
  0.64, ?, -1.9, i, 7%, 3.3, -1.1
CC(C)(C)c1ccc(OCCCN2CCCC2)cc1
  0.65, -5.1, -1.2, i, -6%, 3.0, 1.4
COc1ccc(C(=O)/C=C/c2ccccc2)c(O)c1
  0.75, 5.7, -2.3, i, -1%, 7.1, 8.5
N#Cc1c(C(F)(F)F)cc(-c2cccs2)nc1SCc1cccnc1
  0.7, -0.3, -1.4, /, -3%, -361, /
O=C(NCc1cccnc1)/C(=C/c1ccc(-c2cccc(Cl)c2)o1)S(=O)(=O)c1ccccc1
  0.8, -2.3, 1.2, /, 0%&-7%, 0.0, /
S=C(Nc1cccc(Cl)c1)N1CCOCC1
  0.67, -3.2, 1.6, i, -3%, 1.3, -7.1
CCCCN(C(C)=O)c1c(CC)nc2ccc(C(=O)NCCOc3ccc(OC)cc3)cn12
  /, /, 4.7, i, /, /, 2.0
